VDR inhibitor = blocks the human vitamin D receptor; P11473; VDR-SRC2-3 peptide fluorescence polarization, 2 h; Potency, µM, for the others: max response, negative = inhibition, usual class: inhibitors; 400,000 compounds, 0.93% hits; AID 504847; active = well fitted inhibition curve with a large enough effect; inconclusive = small, poorly fitted or top-dose-only effect, or another doubt; inactive = no such curve, though single readings can be large or run the other way; also: series mostly up to about 120 µM
Target sequence (P11473 whole entry, looked up): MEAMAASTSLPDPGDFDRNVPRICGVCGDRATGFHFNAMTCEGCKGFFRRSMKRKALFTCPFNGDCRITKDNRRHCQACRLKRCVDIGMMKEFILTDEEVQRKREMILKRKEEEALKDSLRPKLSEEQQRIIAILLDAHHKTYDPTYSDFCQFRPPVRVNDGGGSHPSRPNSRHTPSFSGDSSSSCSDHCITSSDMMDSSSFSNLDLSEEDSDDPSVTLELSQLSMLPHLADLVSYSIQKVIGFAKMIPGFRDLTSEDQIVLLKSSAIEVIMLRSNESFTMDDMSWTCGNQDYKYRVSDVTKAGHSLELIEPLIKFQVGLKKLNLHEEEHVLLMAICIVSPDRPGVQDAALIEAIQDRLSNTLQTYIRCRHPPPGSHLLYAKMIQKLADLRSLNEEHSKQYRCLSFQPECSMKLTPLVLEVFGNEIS
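Reagent solutions, kept cold and dark, are dispensed first; compounds are then pinned in at 23 nl, plates briefly spun, and incubated 2 h at ambient temperature. Inhibition of VDR–SRC2-3 peptide binding is read by fluorescence polarization.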
Numbers without * were called inactive; ? = inconclusive. % is scaled to controls: 0 for no effect and ±100 for the full control effect; potency is read from the fitted curve at half-maximal effect. A portion of the library; the hit share may differ from the screen's.

smiles | VDR inhibitor
C/C=C/CSc1nc2c(c(=O)[nH]c(=O)n2C)n1Cc1ccc(C)cc1 | ?
CCCNC(=O)c1ccccc1SCc1c(C)noc1C | -9%
CCOCCCNC(=O)c1c[nH]c2ccc(S(=O)(=O)Nc3cccc(OC)c3)cc2c1=O | 7%
O=S(=O)(NC(=NC1CCCCC1)c1ccccc1)c1ccc(F)cc1 | -1%
CCN(CC(=O)Nc1ccc2c(c1)OCCO2)C(=O)/C=C/c1cccc(C(F)(F)F)c1 | 11%
COc1cc(NC(=O)CN(C)C2CCCCC2)c(C)cc1[N+](=O)[O-] | 9%
Cc1ccc(-c2csc3nc4cc(C(N)=O)ccc4c(=O)n23)cc1 | -12%
Cc1ccc(OCC(=O)N(Cc2cccs2)C2CCS(=O)(=O)C2)cc1C (stereo not drawn) | -19%

By substructure: the entries above containing a carbonyl joined to an NH by a bond outside any ring (5)
smiles | VDR inhibitor
CCCNC(=O)c1ccccc1SCc1c(C)noc1C | -9%
CCOCCCNC(=O)c1c[nH]c2ccc(S(=O)(=O)Nc3cccc(OC)c3)cc2c1=O | 7%
CCN(CC(=O)Nc1ccc2c(c1)OCCO2)C(=O)/C=C/c1cccc(C(F)(F)F)c1 | 11%
COc1cc(NC(=O)CN(C)C2CCCCC2)c(C)cc1[N+](=O)[O-] | 9%
Cc1ccc(-c2csc3nc4cc(C(N)=O)ccc4c(=O)n23)cc1 | -12%

Going on with the list.
smiles | VDR inhibitor
COc1cc(CN(C(=O)COc2ccc(Br)cc2)c2ccccn2)cc(OC)c1OC | 1%
O=C(Nc1ccc(Br)cc1)Nn1cnnc1 | 14%
O=C(NCc1ccccc1)c1ccc2c(=O)n(CCCN3CCCC3=O)c(=S)[nH]c2c1 | 1%
CCOC(=O)c1cccc(NC(=O)c2ccc3c(c2)OCO3)c1 | -8%
CCCCn1c(SCC(=O)N2CCOCC2)nnc1-c1ccoc1C | 6%
CC(=O)NS(=O)(=O)c1ccc(Nc2ccc([N+](=O)[O-])c3nonc23)cc1 | 1%
COc1ccc(N2CCN(Cc3nc4c(c(=O)n(C)c(=O)n4C)n3C(C)C(C)=O)CC2)cc1 (stereo not drawn) | 3%
CCN(CC)S(=O)(=O)c1ccc(/C=C/C(=O)OCC(=O)NCc2ccco2)cc1 | -7%
O=C(Nc1ccc(F)c(Cl)c1)C1CCN(C(=O)c2ccc(F)cc2)CC1 | -28%
Cc1ccc(S(=O)(=O)Nc2nc3ccc(S(C)(=O)=O)cc3s2)cc1 | -3%
COc1cc(/C=C/C(=O)O)cc(S(=O)(=O)N2CCc3ccccc32)c1OC | 9%
CCOC(=O)c1c(NC(=O)CSc2nnnn2-c2ccc3c(c2)OCO3)sc(C)c1C | -1%
O=C(C[C@H]1C[C@H](C(=O)N2CCCCC2)[C@@]2(CCc3ccccc3)c3[nH]c4cc(-c5ccco5)ccc4c3CCN2C1=O)NCCC1=CCCCC1 | ?
Cc1cc(C)n(CCC(=O)N/N=C/c2ccc(O)cc2O)n1 | -13%
S=C(NCC1CCCO1)NC1CCCCC1 (stereo not drawn) | 10%
COc1ccc(C=O)cc1COc1ccc([N+](=O)[O-])c(C)c1 | -2%
CCCN1CCN(CC2=C(C(=O)OCC)C(c3ccc(Cl)cc3)NC(=O)N2)CC1 (stereo not drawn) | -3%
COCCSc1nnc(NC(=O)c2ccc3c(c2)OCO3)s1 | -8%
Cc1onc(-c2ccccc2Cl)c1-c1nc(-c2ccccn2)no1 | -25%
CC(C)(C)OC(=O)N[C@@H](Cc1ccccc1)C(=O)N1CCC(C(=O)NCC(=O)O)CC1 | -20%
O=C(COc1ccccc1)N=C1SC2CS(=O)(=O)CC2N1Cc1ccccc1 (stereo not drawn) | -6%
Cc1ccc(-c2cc(C(F)(F)F)c(C#N)c(SCCC#N)n2)o1 | 12%
COc1ccc(C(=O)Nc2ccc(C(=O)Nc3cccc(C)c3)cc2)cc1 | -11%
CCCc1[nH]nc2c1C(C1CC=CCC1)C(C#N)=C(N)O2 (stereo not drawn) | 5%
CCOC(=O)c1c(C)[nH]c(CCC(=O)Nc2cc(C)cc(C)c2)c1C | 12%
O=C(OCCN1CCCCC1)c1c[nH]c2ccccc12 | -6%
CCCCC(=O)Nc1cccc(NC(=S)NC(=O)COc2ccccc2Cl)c1 | -17%
C/C(N)=C(/C#N)C(=O)CSc1nnnn1-c1ccccc1 | -3%
Cc1ccc(NC(=O)CCNS(=O)(=O)c2ccc3c(c2)oc(=O)n3C)c(C)c1 | -8%
O=C(NCC1CCCO1)c1ccc2c(=O)n(Cc3cccc(Br)c3)c(=S)[nH]c2c1 (stereo not drawn) | -7%
COC(=O)C1=CN(c2ccc(OC)cc2)C=C(C(=O)OC)C1c1ccc([N+](=O)[O-])cc1 | ?
COC(=O)CSc1nnc(CNS(=O)(=O)c2ccc(Cl)cc2)n1C | -2%
CCOc1ccc(NC(=O)CSc2nc(C)cc(C)n2)cc1 | -11%
Cc1ccc(C)c(Nc2nc3c(S(=O)(=O)c4ccc(C(C)C)cc4)nnn3c3ccsc23)c1 | 9%
CC(=O)c1c(C)[nH]c(C(=O)OCC(=O)Nc2nnc(-c3ccccc3)o2)c1C | 6%
CCc1ccc(NS(=O)(=O)c2ccc3[nH]cc(C(=O)N4CCCCCC4)c(=O)c3c2)cc1 | -8%
CCC(CC)C(=O)NCCc1ccc(OC)c(OC)c1 | -10%
CCc1ccc(C(=O)NNC(=S)Nc2ccc(S(N)(=O)=O)cc2)s1 | 0%
O=C(NCC(c1cccnc1)N1CCOCC1)C(=O)Nc1ccc(F)cc1 (stereo not drawn) | 0%
CCOC(=O)N1CCC(Nc2c(OCC)c(=O)c2=O)CC1 | -4%
CC(C)(C)CC(=O)Nc1ccc(Nc2ccccc2)cc1 | 18%
CN1CCN(c2nc(-c3ccc(Cl)cc3)nc3ccccc23)CC1 | -20%
CC(=O)c1cc(-c2ccccc2)n(CC(=O)NCc2cccs2)c1C | 0%
CCN1CCN(c2ccc(NC(=O)c3cccnc3)cc2Cl)CC1 | 13%
C[C@H](CO)N1C[C@H](C)[C@@H](CN(C)S(C)(=O)=O)Oc2ccc(NC(=O)NC3CCCCC3)cc2C1=O | 15%
CC(C)C[C@H](NC(=O)N1c2ccccc2NC(=O)[C@@H]1C(C)C)C(=O)N[C@@H](Cc1ccccc1)C(=O)O | -21%
CC(C)c1nnc(NC(=O)c2cccnc2)s1 | 6%
CCOc1ccc(CC(=O)Nc2cccc(-c3nc4cccnc4s3)c2C)cc1 | 11%
Cc1onc(-c2ccccc2)c1C(=O)Nc1nnc(CC(C)C)s1 | 3%
O=C(C[n+]1ccccc1)Nc1nc2ccccc2s1 | -15%
CNC(=O)C1CCC(Cn2c(=O)c3sccc3n(CC(=O)N3CCCC3)c2=O)CC1 (stereo not drawn) | 0%
COc1ccc(OCCOC(=O)CNC(=O)c2ccc(Cl)cc2Cl)cc1 | 1%
O=C(COC(=O)CCCNC(=O)c1ccc(Cl)cc1)NCc1ccccc1Cl | -1%
CC(C)(C)c1ccc(COC(=O)CNC(=O)CNC(=O)Cc2ccccc2)cc1 | -7%
COc1ccc(-c2nsc(C(=O)N(c3ccc(F)cc3)C(C(=O)NC3CCCC3)c3ccc(OC)cc3)c2N)cc1 (stereo not drawn) | 2%
Cc1cc(N2CCN(C/C=C/c3ccccc3)CC2)n2ncnc2n1 | 6%

(further entries)
smiles,VDR inhibitor
COc1ccccc1NC(=O)CSc1nnnn1-c1ccc(C(=O)O)cc1,-5%
O=C(Nc1cccnc1Cl)c1cc(-c2ccc(Br)cc2)on1,8%
O=C(O)c1cccc(CN2C(=O)S/C(=C/c3cccc([N+](=O)[O-])c3)C2=O)c1,20µM*
CC(=O)Nc1ccc(C(=O)CSc2nnc(C)o2)cc1,3%
CC1CCN(C(=O)COC(=O)c2cc3ccccc3cc2O)CC1,5%
CC(C)(C)OC(=O)N1CCC(c2c(C(=O)NCc3ccccc3)cnn2-c2cccc(F)c2)CC1,-2%
CC(C)(C)c1ccc(N/N=C(\C#N)S(=O)(=O)C(C)(C)C)cc1,1%
CCc1cccc(CC)c1C(O)c1cccnc1 (stereo not drawn),-3%
O=C(c1ccc(=O)oc1)N1CCCc2ccccc21,28%
CCOC(=O)N1CCN(C(=O)c2ccccc2NC(=O)c2ccc(OC)cc2)CC1,3%
CCOC(=O)[C@H]1[C@H]2COc3ccc(Cl)cc3[C@@H]2N2C(=O)[C@@H](CO)NC(=O)[C@@]12C,8%
COc1cccc(CN(C)C(=O)c2cccc(S(=O)(=O)N3CCN(c4ccccc4)CC3)c2)c1OC,10%
Cc1ccccc1/C=N/N1CCN(c2ccccc2)CC1,11%
COC(=O)c1ccc(COc2cc(O)c3c(c2)OC(C)(C)CC3=O)cc1,-19%
Cc1cc(NS(=O)(=O)c2ccccc2)c([N+](=O)[O-])cc1C,-8%
COc1ccc(-n2cnnc2SCC(=O)Nc2cc(S(=O)(=O)N3CCCCC3)ccc2C)cc1,-5%
COc1ccccc1C(=O)NCCC(=O)Nc1ccc(S(=O)(=O)N2C(C)CCCC2C)cc1 (stereo not drawn),-4%
COc1ccccc1C(=O)Nc1ccc(Nc2ccccc2)cc1,24%
Cc1ccc(C(=O)NCCCn2ccnc2)cc1C,-17%
COc1ccc(-c2nnc(SCC(=O)NC3CCCC3)n2C)cc1,-12%
O=C(CSc1ccccc1)Nc1ccc2sccc2c1,-2%
C=CCn1c(SCC(=O)Nc2ccccc2-c2ccccc2)nc2cc(C(=O)O)ccc2c1=O,-17%
O=c1c(-c2ccccc2Cl)coc2c(CN3CCCCC3)c(O)ccc12,-21%
COc1cc(NC(=O)C2CC2)c(OC)cc1NC(=O)c1ccco1,1%
COc1ccccc1NCC(=O)N/N=C/C=C/c1ccccc1,-9%
COc1cc(/C=N/Nc2nc(C)cc(=O)[nH]2)cc(OC)c1O,4%
COc1ccc(CCNC(=O)c2ccc(CS(=O)Cc3ccc(C)cc3)o2)cc1OC (stereo not drawn),-1%
Cc1ccccc1NC(=O)CSc1nnc(Cc2cccn2C)n1-c1ccc(F)cc1,-11%
Cc1ccc(NC(=O)Nn2cnnc2)cc1Cl,12%
COc1ccc(/C=N/Nc2nc(-c3ccc(Cl)cc3)cc(C(F)(F)F)n2)cc1OC,-2%
Cc1nnc(SCC(=O)Nc2ccc(N(C)C)cc2)n(N)c1=O,-8%
Cc1nc(NC(=O)CC(C)C)sc1-c1csc(Nc2ccc(Cl)cc2Cl)n1,8%

An excerpt from above in order of number of heavy atoms, ascending:
smiles,VDR inhibitor
COc1cc(/C=N/Nc2nc(C)cc(=O)[nH]2)cc(OC)c1O,4%
Cc1nnc(SCC(=O)Nc2ccc(N(C)C)cc2)n(N)c1=O,-8%
COc1ccc(/C=N/Nc2nc(-c3ccc(Cl)cc3)cc(C(F)(F)F)n2)cc1OC,-2%

(cont.)
smiles,VDR inhibitor
CCOCCCn1c(=N)c(S(=O)(=O)c2ccc(C)cc2)cc2c(=O)n3ccccc3nc21,-12%
CCC(C)NC(=O)Cn1c(=O)n(CCCC(=O)NCc2ccccc2Cl)c(=O)c2ccccc21 (stereo not drawn),3%
O=C(O)c1ccc(-c2noc(-c3ccccc3C(F)(F)F)n2)cc1,-17%
COc1ccc(N2CCN(C(=O)CCC(=O)N3CC(C)Oc4ccc(C)cc43)CC2)cc1 (stereo not drawn),-4%
N#C/C(=C(/O)C(Cl)c1ccccc1)c1nc2ccccc2s1 (stereo not drawn),1%
CCOc1ccc(NC(=O)CCc2nc3cccnc3n2-c2ccccc2)cc1,10%
O=C(O)/C=C/c1cn(-c2ccccc2)nc1-c1cc2ccccc2o1,24%
O=[N+]([O-])c1ccc(Cl)cc1NCCCN1CCOCC1,0%
Cc1csc(=O)n1CCC(=O)OCC(=O)c1c(N)n(C)c(=O)n(C)c1=O,-8%
CC[C@H](C)[C@H](NC(=O)[C@H](Cc1ccc(O)cc1)NC(=O)CNC(=O)[C@@H]1CCCN1C(=O)[C@H](CC(=O)O)NC(=O)[C@@H](N)CS)C(=O)NCC(=O)N[C@@H](CO)C(=O)N[C@@H](CCCN=C(N)N)C(N)=O,-1%
OC(CNc1ncnc2sccc12)c1ccccc1 (stereo not drawn),4%
COc1ccc(-c2cc(C(=O)Nc3ccn(Cc4ccc(C)cc4)n3)no2)cc1OC,-5%
COc1ccc(C2(c3ccc(OC)cc3)NC(=O)N(CC(=O)N(C)c3ccccc3)C2=O)cc1,6%
CC/C(=N\NC(=O)CSCc1ccccc1Cl)c1ccc2c(c1)OCCO2,-26%
CC(=O)c1ccc(N2CCN(C(=O)CCc3nnc4n(C)c(=O)c5sccc5n34)CC2)cc1,6%
CCOc1ccccc1CN1CCc2nc(N3CCN(c4ccccc4F)CC3)ncc2C1,19%
CCCOc1ccc(CNC(=S)N/N=C/c2ccc([N+](=O)[O-])cc2)cc1,-1%
CCN(CC)S(=O)(=O)c1cc(C(=O)Nc2ccccc2C(=O)O)ccc1OC,7%
Cc1ccc(NC(=O)O[C@@H]2C(=O)c3cc(Br)ccc3O[C@H]2c2ccc3c(c2)OCO3)cc1Br,4%
CC1CCN(C(=O)CNC(=O)Cn2ccc3ccccc3c2=O)CC1,-15%
COc1ccc(NC(=O)CCOc2ccc(C)cc2)cc1S(=O)(=O)N1CCOCC1,?
CCn1c(N2CCN(Cc3ccc([N+](=O)[O-])cc3)CC2)nc2ccccc21,-8%
O=C(NCCN1CCN(c2ccccc2F)CC1)C1c2ccccc2C(=O)N2CCc3ccccc3C12 (stereo not drawn),-9%
COc1cc(/C=C2\SC(N)=NC2=O)cc(Cl)c1O,-3%
O=C(NCC1CCCO1)C(=O)N/N=C/c1cccc(Cl)c1 (stereo not drawn),-7%
COC(=O)CNC(=O)COC(=O)c1cc(Cl)cc(Cl)c1N,6%

High-throughput results deposited in PubChem BioAssay by National Center for Advancing Translational Sciences (NCATS).
